Compound activity: PubChem, SRMLSC
H5N1 CPE = MDCK cell protection from H5N1 avian flu. cytopathic effect, luminescence, 72 h; stronger effect = higher value; no value below 0 was filed and about half of the inactive calls have no number; reference of the scale not given here. inhibition, % at 50 µM. 96,000 tested, 0.07% active. AID 740, 2007; in the data active = inhibition above about 25%
Starred values were filed as active, the others as inactive; i = inactive. Not all compounds are listed; the hit share may differ from the screen's.

SMILES	H5N1 CPE
CC(C)c1ccc2oc(=O)cc(CN3CCN(c4ccc(F)cc4)CC3)c2c1	1.4
Cn1c(SCc2ccccc2F)nnc1-c1cnccn1	1.5
CC(=O)Nc1cccc(Oc2cc(C#N)c(C#N)cc2N2CCOCC2)c1	3.4
O=C(COC(=O)c1cccc(Oc2ccccc2)c1)NCc1ccco1	i
CCCCn1c(N2CCC(Cc3ccccc3)CC2)nc2c1c(=O)[nH]c(=O)n2C	i
CC(C)C(O)(C#CCN1CCCCC1)c1ccccc1 (configuration not stated)	i
Cc1ccccc1CN1CCN(CC(=O)NCCCN2CCN(c3ccc(F)cc3)CC2)C1=O	0.2
CCOC(=O)c1sc(NC(=O)c2c(OC)cccc2OC)nc1C	0.6
COc1ccccc1N1CCN(C(=O)COc2ccc(Cl)cc2)CC1	0.5
O=C(CSc1ccccc1Cl)N1CCC(c2nc3ccccc3s2)CC1	0.8
O=c1cc2c(nn1Cc1ccc(Cl)cc1Cl)-c1ccccc1CC2	0.1
COc1ccc(S(=O)(=O)N(CC(=O)NC2CC2)c2ccc(C)cc2)cc1OC	i
O=C(CNC(=O)c1cccc(Br)c1)NCCc1nc2ccccc2[nH]1	0.0
C=CCSc1nc(C)c(CC=C)c(=O)[nH]1	1.6
CCCNC(=O)c1ccccc1NC(=O)c1ccc(CSc2ccccc2)cc1	i
C=CCc1ccc(OCCCOc2ccc(C)cc2OC)c(OC)c1	0.1
CCOc1ccccc1N1CCN(c2nc(N)c(C#N)c(CC#N)c2C#N)CC1	1.3
COc1ccccc1CCNC1CCC(C(C)(C)C)CC1 (configuration not stated)	2.7
O=C(Cn1nnc(-c2ccccc2)n1)NCc1ccccc1	i
COc1ccc(-c2cc(OC)c3c(C)oc(C)c3c(=O)c2)cc1OC	i
COC(=O)c1[nH]c2ccc(F)cc2c1NC(=O)C1=COCCO1	i
N#C/C(=C(/O)COC(=O)CCC1CCCCC1)c1nc2ccccc2[nH]1	0.4
NC(=S)N/N=C/c1ccc(-c2cc(Cl)ccc2Cl)o1	i
CCOC(=O)N1CCN(C(=O)c2ccc3c(SCC(=O)O)c4c(nc3c2)CCCC4)CC1	2.7
CCOCCCNC(=O)c1cccs1	1.6
CC(=O)OCCOc1nc(N(C)C)nc(N(C)C)n1	i
COc1ccc(NC(=O)COC(=O)c2c(C)noc2C)c(OC)c1	i
COC(=O)Cc1c(C)c2ccc(OCC(C)=O)c(C)c2oc1=O	0.1
CC(/C=N/NC(=O)Cc1cccn1C)=C\c1ccco1	0.9
CC(=O)c1cc2c(cc1NS(=O)(=O)c1ccccc1)OCO2	i
COC(=O)c1c(NC(=O)CN2CCN(C(=O)c3ccco3)CC2)c2cc(C)ccc2n1C	i
COCCSc1nnc(NC(=O)Cc2ccccc2OC)s1	i
COc1ccc(S(=O)(=O)Nc2cc(C)ccn2)cc1OC	1.1
COc1ccc(S(=O)(=O)NCC(c2cccnc2)N2CCN(c3ccc(F)cc3)CC2)cc1C (configuration not stated)	5.5
Nc1ccc(C(=O)OCC(=O)NC2CCCc3ccccc32)cc1[N+](=O)[O-] (configuration not stated)	i
O=C(C1CCCN(Cc2ccccc2C(F)(F)F)C1)N1CCCCC1 (configuration not stated)	i
CCOc1ccccc1N1C(=O)CC(Sc2ncccc2C(=O)O)C1=O (configuration not stated)	i
CC(=O)c1c(C)nc(C)nc1NC(=O)C(C)C	i
CS(=O)(=O)c1ccc(N)cc1	1.2
CS(=O)(=O)N(CC(=O)NCC1CCCO1)c1cc(Cl)cc(Cl)c1 (configuration not stated)	0.4
CCOC(=O)c1ccc(NC(=O)N2CCN(Cc3cccc(F)c3)CC2)cc1	0.5
O=C(O)C1C(c2ccccc2)C(C(=O)OCCCO)C1c1ccccc1 (configuration not stated)	i
O=C(NCc1cccs1)c1cnc2ccccn2c1=O	2.6
COc1ccc(-c2nn3c(-c4ccco4)nnc3s2)cc1OC	6.3
CCCCCCOC(=O)C(C#N)c1nc2ccccc2nc1N1CCN(C)CC1 (configuration not stated)	i
CCCNS(=O)(=O)c1ccc(CCC(=O)N2CCN(CC)CC2)cc1	i
Cc1cc(N2C(=O)C3CCCN3C2c2ccc(Cl)c(Cl)c2)no1 (configuration not stated)	i
COc1ccc(CCNS(=O)(=O)c2ccc(C(=O)NCc3ccco3)cc2)cc1OC	i
COc1ccccc1N1CCN(c2nc(-c3ccccc3)cc(C(F)(F)F)n2)CC1	i
CCOc1c(Cl)cnn(-c2ccc(C)cc2)c1=O	0.3
Cc1nn(CC(N)=O)c(=O)c2ccccc12	i
COc1ccc(-c2cc(C(F)(F)F)n3ncc(C(=O)NCC4CCCO4)c3n2)cc1OC (configuration not stated)	i
CCOC(=O)CSc1ncc(-c2ccccc2)nn1	3.3
COc1ccc(-c2cn3cccnc3n2)cc1NC(=O)C1CC1	4.1
COc1ccccc1NC(=O)CN1C(=O)C(C)Oc2ccccc21 (configuration not stated)	1.1
CS(=O)(=O)c1ccc2nc(NC(=O)Oc3ccccc3)sc2c1	0.3
COc1ccc(-c2nc(CS(=O)(=O)CC(=O)NCCc3cc(OC)ccc3OC)c(C)o2)cc1	0.2
c1ccc2c(-c3nc(C4CCCCC4)no3)cc(-c3ccncc3)nc2c1	i
Cc1nc(N(C)C)c2sc(=S)n(C)c2n1	0.7
Cc1cc(C)nc(SCCC(=O)Nc2ccccc2)n1	0.3
(listing goes on)
SMILES	H5N1 CPE
Cc1onc(-c2ccccc2Cl)c1C(=O)Nc1cccc(-c2nc3ncccn3c2C)c1	3.2
O=C1CCCN1C(=O)CCC(=O)N1CCCC1=O	i
CCOC(=O)c1c(C)[nH]c(C)c1C(=O)COC(=O)C1CCCN1S(=O)(=O)c1ccccc1F (configuration not stated)	1.8
CCc1c(C)nc2[nH]nc(-c3ccccc3C)n2c1=O	36*
CCC12CC3CC(C1)CC(C(=O)O)(C3)C2	2.1
CCCCCCCC(=O)N/N=C/c1ccc(Br)cc1	i
O=C1CS/C(=N\C(=O)N2c3ccccc3Sc3ccccc32)N1	1.1
Cc1cc(C)c(C#N)c(Nc2ccccc2Cl)n1	i
CC(C)N1C(=O)S/C(=C/c2ccc3c(c2)n(C)c(=O)n3C)C1=O	i
Cc1c(NC(=O)CSc2nnnn2C)c(=O)n(-c2ccccc2)n1C	0.3
COc1ccc(N2CCN(Cc3cc(=O)oc4cc5c(cc34)CCCC5)CC2)cc1	0.7
C=CCNc1nc(NCc2ccco2)nc(OCC)n1	0.2
COc1cccc(CNC(=O)c2cc3oc4ccccc4c3n2C)c1OC	i
CC(C)Oc1ccc(Oc2ccc(C(F)(F)F)cn2)cc1	i
CCOC(=O)c1c(NC(=O)c2cccs2)sc2c1CC(C)(C)OC2	i
O=C(OCn1nnc2ccccc2c1=O)c1cn(-c2ccccc2)nc1-c1cccnc1	1.7
CCn1c(SCC(=O)c2ccc3ccccc3c2)nnc1-c1ccco1	i
CCOC(=O)C1CCCN(C(=O)Cc2ccc(OC)c(OC)c2)C1 (configuration not stated)	0.8
Cc1ccc2c(c1)N(CC(=O)NCc1cccs1)C(=O)C(C)O2 (configuration not stated)	0.6
Cc1ccc(Cl)c(NC(=S)N(CCCN2CCOCC2)Cc2ccco2)c1	i
COc1ccccc1N1CCN(S(=O)(=O)c2c(C)ccc3nsnc23)CC1	0.7
CC1CCN(Cc2c(C#N)c3ccccc3n2C)CC1	i
Cc1cccc(OC(C)c2ccnc3nc(/N=C/N(C)C)nn23)c1 (configuration not stated)	0.6
Nc1nc2n(n1)C(c1cccc(Br)c1)CC(c1ccccc1)N2 (configuration not stated)	i
O=C(O)c1n[nH]c2c1CCCCC2	0.3
CCOC(=O)N1CCC(N2C(=O)c3ccc(C(=O)O)cc3C2=O)CC1	i
O=C(OCC1CC(c2ccccc2)=NO1)c1ccc(Cl)cc1 (configuration not stated)	i
CCOc1ccc(N/C(C)=C/C(=O)c2ccc(C)o2)cc1	i
C=CCn1c(N)c(C(=O)N2CCOCC2)sc1=S	0.8
COc1ccc(CCCNC(=O)CC#N)cc1OC	i
CN(CC(=O)Nc1ccc(Cl)cc1)S(=O)(=O)c1cccc2cccnc12	3.9
CC(C)C(NC(=O)c1ccc(C(C)(C)C)cc1)C(=O)O (configuration not stated)	0.3
O=C(CSc1nc2c(c(=O)n1-c1ccc(Cl)cc1)SCC2)N1CCCC1	i
COc1ccc(CCNC(=O)c2cc(-c3ccccc3OC)on2)cc1OC	i
c1ccc2c(CNC3CCCCCC3)c[nH]c2c1	i
COCCNC(=O)C(c1ccc(F)cc1)N(CCOC)C(=O)CCC(=O)Nc1nccs1 (configuration not stated)	1.0
CCOc1ccc(NC(=O)NC2CCOC(C)(C)C2)cc1 (configuration not stated)	0.2
CCc1ccc(N(C(=O)c2snc(C(N)=O)c2N)C(C(=O)NCCC(C)C)c2c[nH]c3ccccc23)cc1 (configuration not stated)	i
COc1ccc(OC)c(NC(=O)Cn2c(=O)oc3ccccc32)c1	0.1
COC(=O)c1ccc(C2C(C(=O)Nc3ccc(C)cc3C)=C(C)Nc3ncnn32)cc1 (configuration not stated)	2.1
COc1ccc2cc(C(c3nnnn3C3CCCC3)N3CCc4ccccc4C3)c(=O)[nH]c2c1 (configuration not stated)	i
C/C(=C\C(=O)O)CC(=O)O	0.7
COc1c(Br)cc(Br)cc1C(=O)O	0.5
COc1ccc(-c2ccc(C#N)c(SCC(=O)Nc3sc4c(c3C#N)CCC4)n2)cc1OC	i
Cc1ccc(NC(C(N)=O)c2c(C)[nH]c(=O)[nH]c2=O)cc1 (configuration not stated)	i
Cc1ccc(C)c(NC(=O)c2cc3ccccn3n2)c1	0.9
COc1ccc(C2(CNC(C)=O)CCOCC2)cc1OC	i
CC(C)Sc1nc(O)c(Cc2ccccc2)c(=O)[nH]1	i
Cc1cc(NC(=O)c2cccc(C(=O)Nc3cc(C)on3)n2)no1	i
CCOC(=O)CN(C(=O)CCC(=O)Nc1cc(C)on1)C(C(=O)NC1CCCC1)c1cccnc1 (configuration not stated)	i
N#CC1=C(N)OC2=C(CC/C2=C\c2ccccc2)C1c1ccccc1 (configuration not stated)	1.5
CCCCCCOC(=O)C(C#N)c1nc2ccccc2nc1N1CCOCC1 (configuration not stated)	i
COc1ccc(O)c(C(=O)c2cnc3onc(C(C)C)c3c2)c1	0.8
CC1CCN(C(=O)CC2C(=O)Nc3c2c(=O)n(C)c(=O)n3Cc2ccccc2)CC1 (configuration not stated)	0.6
Cc1ccc(NC(=O)CS(=O)CC(=O)Nc2ccc(N3CCOCC3)cc2)cc1Cl (configuration not stated)	0.3
CCCOc1ccc(C(C(=O)OCCN(CC)CC)c2ccccc2)cc1 (configuration not stated)	4.3
COc1ccc(C(=O)n2nc(-c3ccco3)nc2SC)cc1OC	i
COc1ccc(C(=O)NC(=S)NCc2ccccc2)cc1	0.1
CCCCC(C(=O)NC(C)(C)C)N(Cc1ccco1)C(=O)c1snc(C(N)=O)c1N (configuration not stated)	1.2
Cn1c(=O)c2sccc2n2c(CCCC(=O)NCc3ccc4c(c3)OCO4)nnc12	2.7
More records follow.
SMILES	H5N1 CPE
COc1ccc(Br)cc1CNC(=O)C1CCCN(c2nc3ccccc3o2)C1 (configuration not stated)	i
CCOC(=O)c1c(NC(=O)c2c(Br)cnn2C)c(C#N)nn1-c1ccccc1	i
COc1ccccc1N(CCC#N)C(=O)CSc1nc(-c2ccccc2)cn1N	0.3
CCCOc1cc(CC(=O)NCc2ccco2)ccc1OC	i
COC(=O)c1ccc(COC(=O)c2[nH]c(C)c(C(C)=O)c2C)o1	1.9
CCOc1ccc2oc(C(=O)OCC(=O)NC(=O)NC3CCCC3)c(C)c2c1	1.2
O=C(O)COc1ccccc1O	0.7
CCn1c(SCCC#N)nnc1-c1ccncc1	0.5
COc1cccc(OCCCCN2CCCCC2)c1	i
CCOC(=O)c1nnc(-c2ccccc2)nc1Oc1ccccc1Cl	0.9
COc1ccc(CNC(=O)C2CC(c3ccccc3[N+](=O)[O-])=NO2)cc1 (configuration not stated)	0.4
COc1ccc(-c2nc(CS(=O)CC(=O)NCC3CCCO3)c(C)o2)cc1 (configuration not stated)	1.1
O=C(Nc1cccc(F)c1)c1cc(S(=O)(=O)N2CCC(C(=O)O)CC2)ccc1F	0.6
CCOC(=O)C(=O)Nc1nc(-c2ccccc2)c(CC)s1	i
Cc1ccc(Cn2c(CN3CCOCC3)nc3c2c(=O)[nH]c(=O)n3C)cc1	2.0
CCOC(=O)c1cnc(Nc2nc3ccccc3o2)nc1C	i
CN(c1ccc(C(=O)NCc2ccccn2)cc1)S(C)(=O)=O	i
COC(=O)c1ccc(C(=O)OC)c(NC(=O)CCc2ccc(C)o2)c1	i

Structural class: the entries above with fluorine (13)
SMILES	H5N1 CPE
CC(C)c1ccc2oc(=O)cc(CN3CCN(c4ccc(F)cc4)CC3)c2c1	1.4
Cn1c(SCc2ccccc2F)nnc1-c1cnccn1	1.5
Cc1ccccc1CN1CCN(CC(=O)NCCCN2CCN(c3ccc(F)cc3)CC2)C1=O	0.2
COC(=O)c1[nH]c2ccc(F)cc2c1NC(=O)C1=COCCO1	i
COc1ccc(S(=O)(=O)NCC(c2cccnc2)N2CCN(c3ccc(F)cc3)CC2)cc1C (configuration not stated)	5.5
O=C(C1CCCN(Cc2ccccc2C(F)(F)F)C1)N1CCCCC1 (configuration not stated)	i
CCOC(=O)c1ccc(NC(=O)N2CCN(Cc3cccc(F)c3)CC2)cc1	0.5
COc1ccccc1N1CCN(c2nc(-c3ccccc3)cc(C(F)(F)F)n2)CC1	i
COc1ccc(-c2cc(C(F)(F)F)n3ncc(C(=O)NCC4CCCO4)c3n2)cc1OC (configuration not stated)	i
CCOC(=O)c1c(C)[nH]c(C)c1C(=O)COC(=O)C1CCCN1S(=O)(=O)c1ccccc1F (configuration not stated)	1.8
CC(C)Oc1ccc(Oc2ccc(C(F)(F)F)cn2)cc1	i
COCCNC(=O)C(c1ccc(F)cc1)N(CCOC)C(=O)CCC(=O)Nc1nccs1 (configuration not stated)	1.0
O=C(Nc1cccc(F)c1)c1cc(S(=O)(=O)N2CCC(C(=O)O)CC2)ccc1F	0.6
